Bioassay records deposited in PubChem by National Center for Advancing Translational Sciences (NCATS).
HPGD block = qHTS Assay for Inhibitors of HPGD (15-Hydroxyprostaglandin Dehydrogenase); 15-hydroxyprostaglandin dehydrogenase [NAD(+)] (Homo sapiens), P15428; purified HPGD, NADH fluorescence kinetic, PGE2 substrate; Potency, µM, for inactives: top-dose activity change, negative = inhibition, most hits filed as inhibitors; actives 4.3% (n = 150,000); active = well fitted inhibition curve with a large enough effect (not every such curve was filed as active); inconclusive = small, poorly fitted or top-dose-only effect, or another doubt; inactive = no such curve, though single readings can be large or run the other way;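 note: top concentration of the series not given in the record; plate controls included wells without enzyme; inactives centre near -10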
Target sequence (P15428 whole entry, looked up): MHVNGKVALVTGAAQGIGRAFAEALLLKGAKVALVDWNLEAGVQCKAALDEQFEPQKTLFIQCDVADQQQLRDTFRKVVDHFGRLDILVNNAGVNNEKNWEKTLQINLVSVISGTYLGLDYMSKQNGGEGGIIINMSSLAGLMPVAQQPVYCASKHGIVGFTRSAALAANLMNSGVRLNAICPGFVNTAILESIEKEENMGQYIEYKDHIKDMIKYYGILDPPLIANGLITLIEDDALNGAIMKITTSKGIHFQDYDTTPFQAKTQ
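NADH formation kinetics: reaction with 30 uM PGE2 and 1 mM NAD+ (final), 20 nM enzyme, Tris-HCl pH 8 with Tween 20, after 15 min compound preincubation at room temperature. Fluorescence change, last versus first of five reads.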
* marks the source's active call; other numbers are inactive results; ? = inconclusive. % is set by controls: 0 for no effect and ±100 for the full control effect; potency is the fitted concentration of half-maximal effect.

SMILES | HPGD block
CCCCN(C)CCNC(=O)c1ccc2c(c1)NC(=O)C(N1CCCCC1)S2 (stereo unspecified) | -4%
COc1ccc(CCNC(=O)CN2C(=O)C3(OCCCO3)c3ccccc32)cc1OC | -3%
CCCCOCC1CN(c2ccccc2)C(=O)CS1 (stereo unspecified) | -5%
Clc1cccc(N/N=C(\Cc2nc3ccccc3[nH]2)c2ccccc2)c1 | -9%
O=C(COc1ccc2ccccc2c1)NCC(=O)N/N=C/c1ccco1 | -20%
COc1ccc(NC(=O)C2CC(=O)N(C(C)C)C2)cc1 (stereo unspecified) | 0%
CCOc1ccccc1N1CCN(S(=O)(=O)c2ccc(Cl)s2)CC1 | -13%
O=C(NCCC1=CCCCC1)C(=O)NCc1ccccc1Cl | -1%
Clc1ccccc1Cn1nc(-c2ccccc2)nc1-c1ccccc1 | -4%
CC(=O)Oc1ccc(N2C(=O)C3C(C2=O)C2(C)C=CC3(C)O2)cc1 (stereo unspecified) | 13µM*
Cc1nc(NC(=O)c2csc3ccccc23)sc1C | 4%
COc1ccc(NC(=O)CCN2CCN(S(=O)(=O)c3ccc(C(C)C)cc3)CC2)cc1 | -8%
COc1cccc(C(=O)N(Cc2nc(-c3cccc(C)c3)no2)C(C)C)c1OC | -10%
COc1cccc(N(CC(=O)N2CCN(C)CC2)S(=O)(=O)c2ccc(C)cc2)c1 | -11%
O=C(Cn1c(NCCO)nc2ccccc21)c1ccc(Cl)cc1 | -12%
CC(C)(C)C(=O)Nc1ccccc1C(=O)Nc1ccccn1 | -11%
O=C(NCCNS(=O)(=O)c1cccc(C(F)(F)F)c1)c1cc(OCC(F)(F)F)ccc1OCC(F)(F)F | -13%
CCn1c(CNc2ccc(Cl)cc2)nnc1SCCN1CCCCC1 | -4%
CCCN1C(=O)CC(C(=O)OC)=C1C | -6%
C=CCNC(=O)c1nn2cccnc2c1Cl | -14%
CCOC(=O)N1CCN(Cc2nc(-c3ccccc3)no2)CC1 | -1%
O=C(/C=C/c1cccs1)NC(=S)NNC(=O)Cc1cccs1 | -10%
Cc1ccc(S(=O)(=O)N2CC(O)CC2C(=O)OCC(=O)c2ccccc2Cl)cc1C (stereo unspecified) | -3%
CCOc1ccccc1CNC(=O)C1CCN(C(=O)c2sccc2-n2cccc2)CC1 | -12%
Cc1ccc(S(=O)(=O)NCC(=O)N(CC(=O)NCc2ccco2)Cc2cccs2)cc1 | -6%

With a hit mark in HPGD block, of those listed so far:
SMILES | HPGD block
CC(=O)Oc1ccc(N2C(=O)C3C(C2=O)C2(C)C=CC3(C)O2)cc1 (stereo unspecified) | 13µM*

Later entries.
SMILES | HPGD block
CCCS(=O)(=O)N1CCC(C(=O)NCc2ccc(F)cc2)CC1 | -8%
COc1ccc(NC(=S)Nc2cc(-c3ccccc3)[nH]n2)cc1Cl | -29%
Nn1c(COc2ccccc2)nc2ccccc2c1=O | -12%
COc1cc(/C=N/NC(=O)c2[nH]nc3c2CCc2ccccc2-3)ccc1O | -19%
CCCn1nnc(NC(=O)Cc2ccc(Cl)cc2)n1 | -8%
CCOC(=O)N/N=C\C=C\c1ccco1 | -21%
COc1ccc(N(Cc2cc(=O)[nH]c3ccccc23)C(=O)c2ccco2)cc1 | -13%
COc1cc2c(cc1OC)C(c1ccco1)CC(=O)N2 (stereo unspecified) | -13%
Cc1occc1C(=O)NCc1ccc2c(c1)OCO2 | -15%
Cc1ccc(CCNC(=O)C2CCCN(C(=O)c3cc4sccc4n3C)C2)cc1 (stereo unspecified) | -12%
CCNC(=O)CC1C(=O)N(c2ccc(C)cc2)C(=O)N1Cc1ccccn1 (stereo unspecified) | -3%
O=C(CSc1nnc2ccccn12)c1ccc(OC(F)F)cc1OC(F)F | -9%
CS(=O)(=O)N(CC(=O)Nc1ccc(S(=O)(=O)N2CCCC2)cc1)c1ccccc1F | -5%
CCc1c(C)nc(SCC(N)=O)c(C#N)c1C | -3%
CC(OC(=O)c1cccc(S(=O)(=O)Nc2ccccc2F)c1)C(=O)NCc1ccc2c(c1)OCO2 (stereo unspecified) | -18%
Cc1nc2cc(C(=O)O)ccc2n1-c1ccccc1 | -13%
Cc1cc(NC(=O)c2ccc(S(=O)(=O)N(C)C)cc2)no1 | -4%
Cc1nc2nc(SCC(=O)N3CCOCC3)nn2c(C)c1Cc1ccccc1 | -9%
O=C(O)CNC(=S)N(Cc1ccco1)Cc1ccccc1Cl | -22%
O=C(NCC1CCCO1)C1c2ccccc2C(=O)N1Cc1ccc2c(c1)OCO2 (stereo unspecified) | -1%
O=C(COC(=O)c1cc2ccccc2oc1=O)Nc1cccc(S(=O)(=O)N2CCCCCC2)c1 | -5%
Cn1c(C(=O)NC2CCCC2)cc2c(=O)n(C)c3ccccc3c21 | ?
CCOC(=O)c1sc(NC(=O)COC(=O)CNC(=O)C2CCCCC2)c(C(=O)OCC)c1C | -10%
OCCN(Cc1ccccc1)Cc1ccc(Cl)cc1 | -3%
COc1ccc(CC(=O)Nc2cccc(-c3nnc(-c4ccccc4)o3)c2)cc1OC | -27%
Going on with the list:
SMILES | HPGD block
Cc1ccc(S(=O)(=O)NC(N)=NCCc2ccccc2)cc1C | -16%
O=C1CC(N(Cc2ccco2)C(=O)Nc2ccc(F)cc2)C(=O)N1c1ccc(F)cc1 (stereo unspecified) | -9%
Cc1c(NC(=O)Cn2ccc([N+](=O)[O-])n2)c(=O)n(-c2ccccc2)n1C | -11%
Cc1ccc(CC2SC(=Nc3ccccc3)N(c3ccccc3)C2=O)cc1 (stereo unspecified) | -2%
CC(/C=N/n1c(-c2ccc(C)cc2)n[nH]c1=S)=C\c1ccco1 | 2.5µM*
O=C(COc1ccccc1F)Nc1nnc(-c2ccncc2)s1 | ?
COC(=O)C1=C(N)Oc2cc(C)n(Cc3cccnc3)c(=O)c2C1c1ccccc1OC (stereo unspecified) | -5%
CC(=O)c1c(OC(=O)c2ccccc2Br)ccc2c(C)cc(=O)oc12 | -8%
Cc1ccc(C(=O)CC2(O)C(=O)N(CN3CCOCC3)c3ccccc32)cc1 (stereo unspecified) | -15%
CCOc1ccc(C2N(c3ccc(Cl)cc3)C(=O)C3CCCN32)cc1OC (stereo unspecified) | -12%
C=CCc1cccc2cc(C(=O)NC(C)(C)C)c(=O)oc12 | -10%
Cc1ccc(S(=O)(=O)NCCC(c2ccc(F)cc2)c2ccco2)cc1 (stereo unspecified) | -4%
CCN(CC(=O)Nc1ccc2c(c1)OCCO2)C(=O)CC1CCCC1 | -3%
CC(C)NC(=O)CSc1nc2ccccc2c(=O)n1CCCOC(C)C | 0%
COc1ccc(CCc2nc(-c3ccc(-n4cccc4)cc3)no2)cc1 | -21%
CC(C)N(Cc1cc2ccccc2[nH]c1=O)C(=O)C(C)(C)C | -15%
CCOC(=O)C1=C(C)C(c2ccccc2)NC(=S)N1 (stereo unspecified) | 2%
Cc1cc(C)c(C)c(Cn2c(CO)nc3ccccc32)c1C | -8%
CCCn1c(N2CCN(CC(=O)c3c[nH]c4ccccc34)CC2)nc2c1c(=O)[nH]c(=O)n2C | -17%
COc1ccc(CCNC(=O)CSc2nnc(CNC(=O)c3ccccc3F)o2)cc1OC | -4%
O=C(Cc1c(O)c2ccccc2[nH]c1=O)N(Cc1ccccc1)Cc1ccccc1 | -27%
Cc1csc(SCC(=O)Nc2nc3ccccc3s2)n1 | -8%
CCN(CC)C(=O)N1c2ccccc2C=Cc2ccccc21 | 0%
COc1ccc(NC(=O)CCNS(=O)(=O)c2ccc3c(c2)CCC(=O)N3)cc1 | -2%
Cc1c(-c2ccc(F)cc2)nc(N)c(C#N)c1-c1cccs1 | -14%

3 compounds from above, arranged by molecular weight, ascending.
SMILES | HPGD block
C=CCc1cccc2cc(C(=O)NC(C)(C)C)c(=O)oc12 | -10%
Cc1ccc(CC2SC(=Nc3ccccc3)N(c3ccccc3)C2=O)cc1 (stereo unspecified) | -2%
Cc1ccc(C(=O)CC2(O)C(=O)N(CN3CCOCC3)c3ccccc32)cc1 (stereo unspecified) | -15%

Next part
SMILES | HPGD block
CS(=O)(=O)N1CCC2(CC1)CN(c1ccccc1)C2 | -8%
Cn1cccc1C(=O)N1CCC2(CCCN(c3cccc(-c4ccccc4)c3)C2)CC1 | -20%
COc1ccc(CN2CC(C(=O)NCCC3=CCCCC3)CC2=O)cc1 (stereo unspecified) | -7%
Cc1ccc(NC(=O)c2ccco2)c(NC(=O)c2cccs2)c1 | -2%
COC12NC(=O)N(C)C1(OC)C(=O)N(C)C(=O)N2C (stereo unspecified) | -11%
O=C(O)CCC(=O)NNc1ccccc1[N+](=O)[O-] | -11%
COC(=O)c1cc(-c2c(C)nn(-c3ccccc3)c2C)n[nH]1 | -6%
CC(=O)Nc1ccc(Nc2nc(C)nc3c2oc2ccccc23)cc1 | -22%
Cc1cccc(NC(c2ccc(O)cc2)c2ccc3ccc(C)nc3c2O)n1 (stereo unspecified) | 18µM*
O=C1CC(N2CCN(Cc3ccc4c(c3)OCO4)CC2)C(=O)N1c1ccccc1 (stereo unspecified) | -10%
COC(=O)c1ccc(C(=O)OCCCc2nc3ccc(N)cc3[nH]2)cc1 | -2%
NC(=O)c1ccc(C23CC4CC(CC(C4)C2)C3)o1 | 2%
CCCSc1nc2c(c(=O)[nH]c(=O)n2C)n1Cc1ccc(C)cc1 | -7%
CCOc1cccc(-c2nn3c(-c4ccco4)nnc3s2)c1 | ?
CCOC(=O)c1csc(NC(=O)c2ccc(S(=O)(=O)N(C)C)cc2)n1 | ?
O=C1c2ccccc2S(=O)(=O)N1Cc1nnc(-c2ccccc2Br)o1 | -17%
Cc1nc(N2CCOCC2)c2nc(-c3ccccc3)n(CC(C)(C)CN(C)C)c2n1 | ?
COc1ccccc1N1CCN(c2cc(=O)n(-c3ccc(Br)cc3)c(=O)[nH]2)CC1 | 2%
CS(=O)(=O)N(CC(=O)N1CCOCC1)Cc1ccccc1 | 2%
CN(C)C(=O)c1nc(C#N)c(N(C)C)o1 | -19%
Cc1cccc(NC(=S)NCc2cccs2)c1C | -19%
O=C1CC(C(=O)N2CCN(c3ccc(F)cc3)CC2)CN1CCc1ccccc1 (stereo unspecified) | -7%
O=C(NC(C(=O)c1ccccc1)n1c(=O)cc[nH]c1=S)c1ccccc1 (stereo unspecified) | -4%
C(=N\Nc1nc2ccccc2s1)/c1ccco1 | -25%
CC(=O)c1cc(F)c(N2CCN(c3ccc([N+](=O)[O-])cc3F)CC2)cc1C | -20%

6 compounds picked at random from the list so far, as already listed:
SMILES | HPGD block
O=C1CC(C(=O)N2CCN(c3ccc(F)cc3)CC2)CN1CCc1ccccc1 (stereo unspecified) | -7%
O=C1CC(N2CCN(Cc3ccc4c(c3)OCO4)CC2)C(=O)N1c1ccccc1 (stereo unspecified) | -10%
CCOc1ccc(C2N(c3ccc(Cl)cc3)C(=O)C3CCCN32)cc1OC (stereo unspecified) | -12%
CCOC(=O)c1sc(NC(=O)COC(=O)CNC(=O)C2CCCCC2)c(C(=O)OCC)c1C | -10%
COc1ccc(NC(=O)CCN2CCN(S(=O)(=O)c3ccc(C(C)C)cc3)CC2)cc1 | -8%
COc1ccc(CCNC(=O)CN2C(=O)C3(OCCCO3)c3ccccc32)cc1OC | -3%

(further entries)
SMILES | HPGD block
COCCNC(=O)c1c(N)n(CCC2=CCCCC2)c2nc3ccccc3nc12 | ?
CC(=O)c1ccc(OCCCC(=O)N2CCN(S(=O)(=O)c3cccs3)CC2)cc1 | 1%
COc1ccc(C(=O)NCCSCc2ccco2)cc1OC | -2%
Clc1ccc(C=Nc2ccc3c(c2)Cc2ccccc2-3)c(Cl)c1 | -7%
Cc1csc(NC(=O)[C@@H](NC(=O)c2ccccc2)C(C)C)n1 | -5%
CCOc1ccc2[nH]c(=O)c(CN(CC3COCCO3)C(=O)c3ccco3)cc2c1 (stereo unspecified) | ?
C/C(=C\C(=O)c1ccc(Br)cc1)N1CCCCC1 | -22%
Fc1ccc(CNC(=S)Nc2ccc(Cl)cc2)cc1 | -15%
O=C(NC1CCCCC1)N1CCC(n2cnc3ccccc32)CC1 | -7%
CCCCOc1cccc(-c2nnc(NC(=O)CSc3ccc(C)cc3)s2)c1 | -9%
CC(C)(C)N1C(=O)Cc2c1nc(N)c1c(N)nc(N3CCCCC3CO)c(C#N)c21 (stereo unspecified) | ?
Cc1ccc(/C=N/NC(=O)c2c[nH]c3ccccc23)o1 | -11%
O=C(c1ccccc1)C(O)c1ccccc1 (stereo unspecified) | 3%
O=C1[C@@H]2[C@H](Cc3ccc(O)cc3)N[C@]3(C(=O)Nc4ccccc43)[C@@H]2C(=O)N1c1ccc(F)cc1 | -1%
Cc1cc(=O)n(C)c(=O)n1CCCCCOc1cccc([N+](=O)[O-])c1 | -23%
COc1cccc(CN(C(=O)Cc2c[nH]c3ccccc23)C(C(=O)NC2CCCCC2)c2cccs2)c1 (stereo unspecified) | -20%
Cc1cccc2cc(CN(Cc3cccs3)C3(c4nnnn4C4CCCC4)CCCC3)c(=O)[nH]c12 | -9%
O=C1CC[C@@]23/C=C/C(=O)NCCCCNCCCNC(=O)/C=C/c4ccc(c2c4)OC3C1 (stereo partly specified) | -9%
CN(CC(=O)N1CCN(c2ccccc2)CC1)S(=O)(=O)c1cnc[nH]1 | -9%
CC(C)(C)NC(=O)C(c1ccncc1)N(C(=O)c1csnn1)c1ccccc1 (stereo unspecified) | -5%
CCOC(=O)Cc1csc(NC(=O)c2csc(C)c2)n1 | -8%
CSc1ccc(CN(C)CC(=O)Nc2ccccc2Br)cc1 | -4%
O=P(O)(CCc1ccccc1)CN1CCCCC1 | -11%
COc1cccc(C(=O)N/N=C(\CC(C)C)c2ccccc2)c1 | -6%
Brc1c(CSc2nnc(-c3ccco3)o2)nc2ccccn12 | 7.9µM*

Only part of the results is shown. The share of hits here may be higher or lower than overall.
